KCNQ2 pot: potentiators of rat KCNQ2 potassium channel; O88943; CHO-K1 KCNQ2, FluxOR thallium flux fluorescence; hits give high values; B-score at 10 µM; 310,000 tested, 0.54% active; AID 2239;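 active means fluorescence ratio B-score at least 3 SD of library B-scores, with initial fluorescence B-score within 3 SD, cut at about 5.3 in these data; same plate scores as AID 2156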;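 further: B-score of peak minus minimum over baseline fluorescence ratio after K+ and Tl+ stimulus; positive B-score means potentiation of KCNQ2 with more thallium influx and brighter signal; only the inactives scoring about 0 or higher are listed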
Target sequence (O88943 whole entry, looked up): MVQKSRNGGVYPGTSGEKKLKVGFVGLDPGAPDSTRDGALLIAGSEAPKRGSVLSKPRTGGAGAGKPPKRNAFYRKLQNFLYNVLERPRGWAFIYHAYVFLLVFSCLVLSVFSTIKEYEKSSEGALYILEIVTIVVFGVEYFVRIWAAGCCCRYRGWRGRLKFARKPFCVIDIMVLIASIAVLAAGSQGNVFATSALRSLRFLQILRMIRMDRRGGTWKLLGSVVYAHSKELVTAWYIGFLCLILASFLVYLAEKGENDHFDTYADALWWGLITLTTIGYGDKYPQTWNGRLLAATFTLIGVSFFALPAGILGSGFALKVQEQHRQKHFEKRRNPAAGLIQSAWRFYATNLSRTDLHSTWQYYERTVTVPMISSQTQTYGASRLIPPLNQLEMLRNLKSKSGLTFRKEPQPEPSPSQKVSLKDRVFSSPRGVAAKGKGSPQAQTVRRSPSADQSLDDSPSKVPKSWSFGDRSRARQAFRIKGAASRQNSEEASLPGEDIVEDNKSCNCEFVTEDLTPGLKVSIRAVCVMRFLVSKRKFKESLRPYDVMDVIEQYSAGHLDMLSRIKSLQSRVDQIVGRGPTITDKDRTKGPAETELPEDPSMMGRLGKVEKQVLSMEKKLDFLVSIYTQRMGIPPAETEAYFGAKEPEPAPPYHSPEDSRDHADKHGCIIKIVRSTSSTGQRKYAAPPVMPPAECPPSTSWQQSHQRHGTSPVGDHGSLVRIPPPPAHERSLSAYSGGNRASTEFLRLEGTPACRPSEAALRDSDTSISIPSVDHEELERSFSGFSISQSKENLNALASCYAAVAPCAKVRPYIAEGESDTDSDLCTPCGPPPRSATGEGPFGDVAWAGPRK
KCNQ2 pot baseline: also measured in KCNQ2 pot; calls as there; B-score; compound at 10 µM; measured here: initial fluorescence intensity artifact check;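 brightness before thallium and not channel activity; 0 = typical well and far values either way flag optical interference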
An asterisk follows results filed as active; · = not tested or not shown. Only part of the results is shown. The share of hits here may be higher or lower than overall.

SMILES	KCNQ2 pot	KCNQ2 pot baseline
CN(C)/C(=N\S(=O)(=O)c1ccccc1)c1ccc(Cl)cc1	0.09	-0.09
Cn1c(C(=O)N2CCCC(C(=O)NCc3cccs3)C2)cc2sccc21 (stereo unspecified)	0.73	-1.15
CCC(C(=O)NC1CC1)n1nc(C)c2c(C)n(-c3ccccc3)nc2c1=O (stereo unspecified)	0.07	-0.91
CC1(O)c2ccccc2C(=O)N1CCc1ccccc1F (stereo unspecified)	0.14	0.03
Cc1ccc(NC(=O)CN2C(=O)S/C(=C\c3ccccn3)C2=O)cc1	0.13	0.91
CCOC(=O)Cn1cc(/C=C(\C#N)C(=O)N2CCOCC2)c2ccccc21	0.88	0.06
Nc1nonc1-n1nnc(C(=O)N/N=C/c2ccc(F)cc2)c1-c1cccs1	0.88	0.34
COc1cc(/C=N/n2c(C)n[nH]c2=S)ccc1OCc1ccc(F)cc1	0.27	0.62
CC(=O)N1CCN(C(=O)c2ccc(OC3CCN(CCc4ccccc4)CC3)cc2)CC1	0.04	0.52
N#Cc1cc2c(nc1SCC(N)=O)CCCCC2	0.25	0.23
CC(=O)N1c2ccccc2C(C)=CC1(C)C	0.55	-0.02
CCC(C)c1ccc(OCC(=O)Nc2ccc3c(c2)C(=O)NC3=O)cc1 (stereo unspecified)	0.59	0
COc1ccc(NC(=O)COC(=O)c2ccc(S(=O)(=O)N(C)c3ccccc3OC)cc2)cc1OC	0.73	-0.35
O=C(Cc1ccc(Cl)cc1)N/N=C/c1cccs1	2.44	0.47
COc1ccc(C(=O)/C(C#N)=N/Nc2ccccc2[N+](=O)[O-])cc1	1.37	1.43
O=C1N(c2ccccc2)c2ccccc2C1(O)C(F)(F)F (stereo unspecified)	1.14	-1.46
O=C(c1n[nH]c(=O)c2ccccc12)N1CCOCC1	1.63	-2.19
CCCNC(=O)/C=C/c1ccc(C(C)C)cc1	0.22	-0.55
CCN(Cc1nc2ccccc2c(=O)[nH]1)Cc1nc2ccsc2c(=O)[nH]1	0.19	1.08
CCOc1ccc(Nc2nc3ccccc3n3cnnc23)cc1	0.04	1.57

Next structures.
SMILES	KCNQ2 pot	KCNQ2 pot baseline
CC(C)(C)Cc1nnc(NS(=O)(=O)c2ccc([N+](=O)[O-])cc2)s1	2.13	-2.28
CCCOC(=O)c1cc2ccccc2oc1=O	1.59	0.62
CC(C)CNC(=O)C1Nc2ccc(OC(F)(F)F)cc2C2C=CCC12 (stereo unspecified)	1.54	2.2
c1ccc(-c2n[nH]c(-c3ccccn3)n2)nc1	0.82	·
CC(C)(C)CC(C)(C)NC(=S)N1CCN(Cc2ccc3c(c2)OCO3)CC1	0.55	-0.19
Cc1ccc(N(CC(=O)NCc2ccc(F)cc2)C(=O)c2csnn2)cc1C	1.52	-0.56
Cc1ccccc1-n1nnc2c(=O)oc3ccccc3c21	1.26	0.41
CCCCCNCc1ccc(Cl)cc1	0.17	0.43
O=S1(=O)N[C@@H](CC2=CCCCC2)C2CCCCC2O1 (stereo partly specified)	0.01	-1.85
Oc1ccccc1/C=N/[n+]1ccccc1	0.99	-0.61
CC(C)/C=N/NC(=O)c1ccc(Cl)cc1	0.82	0.35
C#CCOc1ccc(Cl)cc1/C=N/O	0.2	-1.14
O=C1CN(C(=O)CSc2nc3ccccc3c(=O)n2CC2CCCO2)c2ccccc2N1 (stereo unspecified)	0.09	-0.99
Cc1ccc(-c2cnco2)cc1	1.25	-0.08
CCc1ccccc1NC(=O)NC1CCCCCCC1	2.14	0.07
COc1ccc(-c2cc(C)no2)cc1S(=O)(=O)NCCc1ccco1	1.15	1.29
COc1cccc(-n2c(SCc3c(C)noc3C)nnc2-c2cccc(S(=O)(=O)N(C)C)c2)c1	0.96	-0.24
COc1ccc(C(C)=O)cc1COC(=O)c1c(C)noc1C	0.51	-0.58
C/C(N)=C(/C#N)C(=O)CSc1nnc(Nc2cccc(C)c2)s1	0.3	-0.25
CCn1c(=O)c(=O)[nH]c2cc(C(=O)N3CCN(Cc4ccc5c(c4)OCO5)CC3)ccc21	0.99	-2.95

Entries of single compounds, quoted from the list. Screens in order: KCNQ2 pot	KCNQ2 pot baseline
`COc1ccc(-c2cc(C)no2)cc1S(=O)(=O)NCCc1ccco1` as listed: 1.15	1.29
`CC(C)(C)Cc1nnc(NS(=O)(=O)c2ccc([N+](=O)[O-])cc2)s1` as listed: 2.13	-2.28

4 compounds out of the list, ordered by molecular weight, ascending:
SMILES	KCNQ2 pot	KCNQ2 pot baseline
Cc1ccc(-c2cnco2)cc1	1.25	-0.08
CCCOC(=O)c1cc2ccccc2oc1=O	1.59	0.62
COc1ccc(C(C)=O)cc1COC(=O)c1c(C)noc1C	0.51	-0.58
CC(C)(C)Cc1nnc(NS(=O)(=O)c2ccc([N+](=O)[O-])cc2)s1	2.13	-2.28

New compounds follow.
SMILES	KCNQ2 pot	KCNQ2 pot baseline
Oc1cccc(C(O)CNCc2ccc(-c3ccccc3)cc2)c1 (stereo unspecified)	0.14	0.05
COc1ccc(OC)c(NC(=S)NCCCN2CCOCC2)c1	0.03	-0.01
O=C(OCC(=O)N1CCOCC1)c1ccccc1Br	0.58	0
O=C(COc1cccc2cccnc12)N/N=C1\SCC(=O)N1Cc1ccccc1	0.08	-1.05
Cc1c(-n2c(-c3ccccc3)nc3ccccc3c2=O)c(=O)n(-c2ccccc2)n1C	1.87	0.03
CC(=O)C(C(C)=O)c1cc(NS(=O)(=O)c2ccccc2)ccc1NS(=O)(=O)c1ccccc1	1.25	-0.61
O=C(N/C(=C/c1cccnc1)C(=O)N1CCOCC1)c1ccco1	0.14	-0.76
O=C(CSc1ccc([N+](=O)[O-])cn1)Nc1nccs1	0.62	-1
Cc1ccc(-n2ncc3c(SCc4cccc(C)c4)ncnc32)cc1	0.04	0.83
CC(C)N(Cc1ccccc1)C(=S)Nc1ccccc1F	1.87	0.04
CS(=O)(=O)c1ccc(C(=O)NC2CCOC2=O)cc1 (stereo unspecified)	0.13	-2.66
Cc1ccc(-n2c(Cc3cccn3C)nnc2SCC(=O)Nc2cc(C)on2)cc1	0.52	-0.6
O=S(=O)(c1ccccc1)c1nc(NCc2cccnc2)sc1Cl	1.87	0.48
COc1ccc(NC(=O)C2CCN(S(C)(=O)=O)CC2)cc1Cl	0.51	-4.1
CCOc1ccc(NC(=O)CSc2nc3ccccc3c(=O)n2CCNC(C)=O)cc1	0.15	-1.39
O=C(CSc1nnc(-c2ccncc2)n1-c1ccccc1)N1CCN(c2ccc(Cl)cc2)CC1	0.71	-0.25
O=C(Nc1ccccc1)N1CCN(Cc2ccc(Cl)cc2)CC1	1.38	-2.22
COc1ccc(S(=O)(=O)N2CCN(CC(O)COc3ccc(CC#N)cc3)CC2)cc1OC (stereo unspecified)	0.26	0.05
Cc1ccc(C(=O)Nc2ccc([N+](=O)[O-])cn2)o1	2.42	-2.01
Cc1ccccc1NC1=NCC(c2ccc([N+](=O)[O-])cc2)S1 (stereo unspecified)	1.38	0.05

Following part
SMILES	KCNQ2 pot	KCNQ2 pot baseline
CCOC(=O)c1c(NC(=O)Nc2ccc(C)cc2)sc2c1CCN(C)C2	0.28	-0.05
Cc1cc2cc(CNS(=O)(=O)N(C)C)ccc2[nH]1	1.03	-1.77
O=C1CN(c2cc(Cl)cc(Cl)c2)C(=O)CN1/N=C/c1cccnc1	0.83	1.31
CCOC(=O)c1c(NC(=O)C2=C(C)NC(=S)NC2c2ccc(F)cc2)sc(C)c1C (stereo unspecified)	2.11	-0.47
COC(=O)c1ccc(CNC(=O)COC(=O)c2ccccc2-c2ccccc2)cc1	0.54	0.97
COc1ccc(CC(=O)N2CCN=C2SCc2ccc([N+](=O)[O-])cc2)cc1	0.95	0.9
CC(C)c1ccc(NC(=O)Cn2c(=O)oc3ccccc32)cc1	0.29	1.23
CSc1ccccc1C(=O)NCc1ccc(S(N)(=O)=O)cc1	0.46	1.88
COc1cc(N2C(=O)c3ccccc3C2=O)c(Cl)cc1C(=O)OCC(=O)N1CCOCC1	0.15	-0.02
O=C(NNc1ccccc1)C(=O)N1CCCCC1	0.4	-4.7
COc1cc(-c2n[nH]c(=S)n2-c2ccc(Br)cc2)cc(OC)c1OC	0.86	-1.82
COc1cc([N+](=O)[O-])ccc1NC(=O)Cc1ccccc1	1.13	-0.47
CSc1n[nH]c(=O)n1-c1ccc(Cl)cc1	0.67	-2
O=C(Nc1ccccc1C(=O)N1CCOCC1)C1CCCO1 (stereo unspecified)	0.01	0.44
CN(C)CCOC(=O)/C(=C/c1cn(C)c2ccccc12)NC(=O)c1ccccc1	0.48	-1.19
NS(=O)(=O)c1ccc(CCNC(=O)c2cc(-c3ccc(Br)cc3)nc3ccccc23)cc1	0.64	0.71
CCOC(=O)c1ccc(OCc2nc(-c3cccs3)no2)cc1	1.62	-0.53
CC1(c2ccccc2Cl)NC(=O)N(CC(=O)Nc2ccccc2OC(F)F)C1=O (stereo unspecified)	0.6	0.3
CCOC(=O)N1CCN(S(=O)(=O)c2ccc(C(=O)Nc3nc4c(s3)CC(C)CC4)cc2)CC1 (stereo unspecified)	0.56	0.23
CCc1cc(C)cc(OCCOc2ccccc2/C=N/NC(C)=O)c1	0.28	-0.33

Some of the entries so far, as labelled records:
> CSc1n[nH]c(=O)n1-c1ccc(Cl)cc1
  KCNQ2 pot: 0.67 | KCNQ2 pot baseline: -2

> O=C(Nc1ccccc1C(=O)N1CCOCC1)C1CCCO1 (stereo unspecified)
  KCNQ2 pot: 0.01 | KCNQ2 pot baseline: 0.44

Going on with the list:
Value order: KCNQ2 pot	KCNQ2 pot baseline
CCOC(=O)N1CCN(CC(O)c2ccccc2)CC1 (stereo unspecified)
→ 1.2	0.04
O=C(COc1ccc(C2SCCS2)cc1)Nc1ccc(Cl)cc1
→ 1.23	0.77
Cc1c(OCC(=O)N2C[C@H]3C[C@@H](C2)c2cccc(=O)n2C3)ccc2c3c(c(=O)oc12)CCCC3
→ 1.18	-0.6
COc1ccccc1OCCNC(=O)c1cccs1
→ 0.15	0.17
O=C(CSc1nc(O)cc(=O)n1-c1ccccc1)Nc1ccc2c3c(cccc13)CC2
→ 3.26	1.32
Cc1c(NC2=NC(C)(C)Cc3ccccc32)c(=O)n(-c2ccccc2)n1C
→ 0.3	0.15
CC1CCN(c2ccc(NC(=O)c3cccnc3)cc2)CC1
→ 0.02	-0.34
CCOc1cc(CO)cc(Br)c1OCC(=O)O
→ 0.05	0.32
CC1CCCN(C2=C(NS(=O)(=O)c3ccc(Cl)cc3)C(=O)c3ccccc3C2=O)C1 (stereo unspecified)
→ 1.93	-2.03
CCCCOc1ccc(Cn2c(=O)oc3ccccc32)cc1
→ 0.33	-0.01
COC(=O)c1sccc1NC(=O)c1c(C)cc(=O)oc1C
→ 0.6	1.48
CCOc1ccc(-n2c(SCC(=O)Nc3cc(C)on3)nc3c(c2=O)SCC3)cc1
→ 1.47	-0.6
CC1CCN(c2ccc(C(=O)NCc3ccco3)cc2[N+](=O)[O-])CC1
→ 0.4	1.2
O=C(Nc1cnc2ccccc2c1)c1ccncc1
→ 0.03	0.25
O=C(c1ccco1)N1CCN(C(=O)C2CCN(S(=O)(=O)c3cccc4nsnc34)CC2)CC1
→ 1.57	-1.94
COc1ccc(CNC(=O)COC(=O)c2cccnc2Nc2cccc(C(F)(F)F)c2)cc1
→ 0.03	1.98
COc1ccc(CCNC(=O)CSc2nnc(-c3ccccc3)o2)cc1OC
→ 4.35	0.35
CN(C)/C=C1/C(=O)N(c2ccc([N+](=O)[O-])cc2)N=C1c1ccccc1
→ 2.45	-0.21
CCOCCCNC(=O)c1ccc(CS(=O)(=O)Cc2ccccc2F)o1
→ 0.99	-0.08
Cc1cccc(NC(=O)[C@@H]2CCCN2C(=O)OC(C)(C)C)c1
→ 0.69	1.26

Next entries follow.
Value order: KCNQ2 pot	KCNQ2 pot baseline
COc1ccc(NC(=O)CN(C)C(=O)C(CCSC)NC(=O)c2ccccc2)cc1 (stereo unspecified)
→ 1.6	-0.19
CCSc1ccc2nnc(-c3cccs3)n2n1
→ 0.71	-2.1
O=[N+]([O-])c1ccc(-n2nnnc2CN2CCOCC2)cc1
→ 0.09	-1.47
COc1ccc(CCNc2ccc(C)cc2)cc1
→ 0.06	0.86
Cc1cc2c(=O)[nH]c(Cc3ccccc3)nc2s1
→ 0.7	-0.54
O=C(Nc1ccc(F)c(Cl)c1)Nc1csc2ccccc12
→ 0.02	0.74
COC(=O)c1oc2ccc(Cl)cc2c1NC(C)=O
→ 0.26	-0.63
CCOc1cc(/C=N\NC(=O)Cn2nnc3ccccc32)ccc1O
→ 0.85	-0.85
CCOc1ccccc1NC(=O)Cn1nnc(C(=O)Nc2ccccc2Cl)c1N
→ 0.48	1.91
O=C(Nc1ccc(N2CCOCC2)c([N+](=O)[O-])c1)c1ccco1
→ 1.17	-0.33
COc1cc([N+](=O)[O-])ccc1NC(=O)C[n+]1cccc(C(C)=O)c1
→ 0.77	-1.44
CCCCCCn1c(SCC(=O)Nc2cc(C)on2)nc2ccccc2c1=O
→ 0.52	1.35
O=C(O)C1CCC(NSc2ccccc2[N+](=O)[O-])CC1 (stereo unspecified)
→ 0.25	1.66
CCOC(=O)C1CCCN(c2c(NCCN3CCCCC3C)c(=O)c2=O)C1 (stereo unspecified)
→ 1.36	-0.28
Cc1cccc(NC(=O)c2cc(-c3cc(C)ccc3O)n[nH]2)c1
→ 0.11	1.11
COc1cccc(-n2cc(-c3ccc(F)cc3)[nH]c2=S)c1
→ 0.67	-1.58
CCOc1ccc(NC(=O)CCC(=O)N/N=C/c2ccc([N+](=O)[O-])s2)cc1
→ 0.61	-0.81
Cc1cc(Br)ccc1SCC(=O)NCC(c1ccco1)N1CCCCC1 (stereo unspecified)
→ 0.03	-0.27
CCOc1ccc(C(=O)OCC(=O)NC2CCCC2)cc1OCC
→ 0.12	-0.03
CCCCOc1nc2ccccc2nc1C(C#N)S(=O)(=O)c1ccccc1 (stereo unspecified)
→ 0.69	-0.1

From PubChem BioAssay
